Screening results (PubChem BioAssay)
Vaccinia mCherry – qHTS for Stage-Specific Inhibitors of Vaccinia Orthopoxvirus: mCherry Reporter Primary qHTS; Vaccinia virus mCherry reporter infection, fluorescence; about a quarter of the inactives have no number; Potency, µM (top dose mostly 36.5 µM), for the others: top-dose activity change, negative = inhibition, usual class: inhibitors; actives 0.63% (n = 310,000); AID 720579, 2013; active = well fitted inhibition curve with a large enough effect; inconclusive = small, poorly fitted or top-dose-only effect; inactive = no such curve, though single readings can be large or run the other way; tested in A549 cells; further: nearly all actives have a fitted effect of over 35% in size; inactives centre near -10
VACV Venus inh – qHTS for Stage-Specific Inhibitors of Vaccinia Orthopoxvirus: Venus Reporter Primary qHTS; Potency, µM (series often up to 36.5 µM), without a hit: top-dose activity change, negative = inhibition, usual class: inhibitors; Vaccinia virus Venus reporter expression, fluorescence; actives 0.46% (n = 330,000); AID 720580, 2013; active means well fitted inhibition curve with a large enough effect; inconclusive means small, poorly fitted or top-dose-only effect; inactive means no such curve, though single readings can be large or run the other way; tested in A549 cells; further: nearly all actives have a fitted effect of over 30% in size; inactives centre near -10
Active calls of the source: *; i = inactive; ? = inconclusive; / = no result given; & = joins results of further samples; [ ] = another dose, or the depositor's remark. On the % scale 0 is the no-effect control and ±100 the full control effect; potency means the concentration at half of the fitted maximal effect.

SMILES | Vaccinia mCherry | VACV Venus inh
Cc1ccc(-c2c[n+](CC(=O)Nc3cc(=O)n(C)c(=O)n3C)c3n2CCC3)cc1 | i | -7%
COc1ccc(NC(=O)c2ccco2)cc1NC(=O)COc1ccc(Cl)cc1C | ? | ?
COc1cccc(C2C(C(=O)c3cccs3)=C(O)C(=O)N2c2cc(C)on2)c1 (stereo not drawn) | i | -11%
Cc1nc(N)ncc1CCC1OCCO1 | -18% | -8%
Clc1cccc(CNc2ccn3nc(-c4cccc(OCc5ccccc5)c4)cc3n2)c1 | -11% | -14%
COc1ccc2cc(OCC(=O)NNC(=O)Nc3ccc(OC)c(OC)c3)ccc2c1 | -13% | -17%
Cc1cccc(NC(=O)CSc2nc3ccccc3nc2N2CCCCC2)c1 | -6% | 5%
COCCn1c(C)cc(C(=O)CSc2ccc3ccccc3n2)c1C | / | -21%
CCCCN(CCCC)CP(=O)(c1ccccc1)c1ccccc1 | -19% | -26%
CC(C)(C)c1ccc(OCCNC(=O)Cc2ccc(F)cc2)cc1 | -19% | -17%
CCOC(=O)c1nn(-c2ccc3c(c2)OCCO3)cc1O | -16% | -10%
Cc1ccc(C(=O)NCCSc2ccc(Cl)cc2)cc1[N+](=O)[O-] | / | ?
CCCN(CC(=O)Nc1ccccc1OC)C(=O)c1cc(S(=O)(=O)NCc2ccccc2)ccc1C | -5% | -9%
Cc1cc(C)n(CCC(=O)N/N=C/c2ccc(Cl)c([N+](=O)[O-])c2)n1 | -11% | -19%
Nc1c(C(=O)Nc2ccccc2)sc2nc(N3CCOCC3)c3c(c12)CCCC3 | -22% | -27%
O=S(=O)(c1ccc(OCC(O)CNCc2ccco2)c(Cl)c1)N1CCOCC1 (stereo not drawn) | 3% | 7%
COc1ccc(-c2ccnc3c(-c4ccc(F)cc4)c(C)nn23)cc1OC | -7% | -9%
CN(Cc1ccccc1)c1ncnc2onc(-c3ccc(F)cc3)c12 | -3% | 7%
CCCNC(=O)CN1C(=O)CSc2ccc(S(=O)(=O)N3CCC(C)CC3)cc21 | -11% | 5%
CS(=O)(=O)N(CC(=O)N1CCN(c2ccc(F)cc2)CC1)C1CCCCC1 | -5% | 3%
COc1cccc2sc(N(CCCN(C)C)C(=O)C(c3ccccc3)c3ccccc3)nc12 | ? | ?
NC(=O)NOCc1ncc(C(F)(F)F)cc1Cl | / | -14%
CC1CCCC(C)N1CC(O)COc1ccc(Cl)cc1 (stereo not drawn) | -16% | -4%
CN(C)S(=O)(=O)c1cccc2nsnc12 | -10% | -5%
CC(C)(C)NS(=O)(=O)c1ccc(OCC(=O)Nc2ccc3c(c2)OCCO3)cc1 | -17% | -11%
COC(=O)N1[C@H](Cc2ccccc2)C=C[C@]1(C)C(=O)O | -10% | -12%
COc1ccc2nc3n(c(=O)c2c1)-c1ncccc1C(=O)NC3CC(C)C (stereo not drawn) | -11% | -7%
Cc1ccccc1-c1nnc(CS(=O)(=O)c2ccccc2)o1 | -2% | -2%
O=C(NCc1ccccn1)c1ccc(CNS(=O)(=O)c2cccc(Cl)c2)cc1 | -17% | -8%
COC(=O)c1ccc(Oc2ccc(C(C)(C)C)cc2)c([N+](=O)[O-])c1 | -25% | -5%
CC(C)C(=O)Nc1ccc2c(c1)C(=O)N(CCC(=O)O)C2=O | / | -18%
NS(=O)(=O)c1ccc(NC(=S)NC(=O)c2cccc(Br)c2)cc1 | ? | -25%
Cc1cccc(Oc2ccc(NC(=O)CCC(=O)OCC(=O)c3ccc(Br)cc3)cc2)c1C | -12% | -12%
O=C(c1cccc(S(=O)(=O)N2CCCC2)c1)N1CCCC(C(F)(F)F)C1 (stereo not drawn) | -11% | -4%
CS(=O)(=O)N1N=C(c2ccco2)CC1c1ccc(Cl)cc1 (stereo not drawn) | -11% | 2%
Cn1c(CNC(=O)CSc2n[nH]c(-c3ccccc3Cl)n2)nc2ccccc21 | -13% | -1%
CCOC(=O)c1cc(-c2ccc(OC)cc2)n(CCC(=O)NC2CCCCC2)c1C | 1% | -4%
CCOc1ccc(NC(=O)CN(C)C(=O)c2n[nH]c(=O)c3ccccc23)cc1OCC | i | -8%
COC(=O)c1ccc(CSc2nc3ccc(S(=O)(=O)N4CCOCC4)cc3[nH]2)cc1 | -1% | -21%
CCOC(=O)C1CCN(C(=O)c2ccco2)CC1 | / | -21%
O=C(NC1CCCCC1)C(=S)NCc1ccccc1 | -6% | -15%
COc1cc(-c2noc(C)c2C(=O)NCCc2c[nH]c3ccccc23)cc(OC)c1OC | -29%&-9% | -23%&-16%
Cn1c(Cn2c(=O)sc3ccccc32)nnc1SCC(=O)N1CCCC1 | 4% | -3%
Cc1cc(NN)nc(NS(=O)(=O)c2ccc(Cl)cc2)n1 | -22% | 4%
Cc1ccc2c(c1)NCC(C(=O)NCc1ccccc1)O2 (stereo not drawn) | ? | -13%
O=C(CSc1nc2nn(-c3ccccc3)c(=O)c-2c2n1CCCCC2)c1ccc(O)c(O)c1 | -24% | ?
CCCCCCc1cc2cc(S(=O)(=O)c3ccc(F)c(Cl)c3)c(=O)oc2cc1O | ? | ?
O=C(Cc1ccc2c(c1)OCCO2)N1CCN(S(=O)(=O)c2cccc(C(F)(F)F)c2)CC1 | i | -7%
O=C(CNC(=O)c1ccc(Br)o1)Nc1cccc(S(=O)(=O)N2CCOCC2)c1 | -15% | -3%
CC(=O)CC(c1ccccc1)c1c(O)c2ccccc2oc1=O (stereo not drawn) | -14%&-1%&-16% | -15%&-5%&-5%&-6%
CCS(=O)(=O)c1ncc(Cl)c(C(=O)Nc2c(C(=O)c3ccc(C)cc3)oc3ccccc23)n1 | -23% | -10%
CN(CC(=O)Nc1ccccc1C(F)(F)F)C(=O)Cn1c(=O)oc2ccccc21 | i | -10%
N#Cc1c2n(cnc1=O)CCCCC2 | / | -5%
CCc1c(C)nc2nc(SCc3ccccc3Cl)[nH]n2c1=O | i | -14%
CC1CN(c2nn3c(=O)c4ccccc4nc3c3ccccc23)CC(C)O1 (stereo not drawn) | -1% | -12%
Cc1ccc(C2(C)NC(=O)N(CC(=O)Nc3ccccc3N3CCCCC3)C2=O)cc1 (stereo not drawn) | -25% | -17%
Cc1nc(-c2ccncc2)sc1C(=O)Nc1ccc(Br)cc1 | -6% | -2%
COc1ccccc1-c1nc(-c2ccccn2)no1 | -10% | -8%
CCOC(=O)/C(C#N)=N\Nc1ccc(S(=O)(=O)Nc2nc(C)cc(C)n2)cc1 | -12% | -5%
O=S(=O)(/C=C/c1ccccc1)Nc1ccc(N2CCOCC2)cc1 | -14% | -4%
The listing continues.
SMILES | Vaccinia mCherry | VACV Venus inh
O=C1CCN(Cc2ccccc2)C(=O)N1c1ccccc1 | 4% | 2%
Cc1nnc(SCCC(=O)Nc2ccc(F)cc2)s1 | -5% | 0%
COc1ccc(Cn2ccc(=O)c(Cc3c(Cl)cccc3Cl)c2C)cc1 | / | -24%
CC(=O)c1cccc(CN2CCC(C(=O)Nc3ccc(-c4cccc(C)c4)cc3)CC2)c1 | -10% | ?
COc1cccc(Cl)c1NC(=O)N1CCc2c([nH]c3ccccc23)C1C(F)(F)F (stereo not drawn) | -21% | 11%
Cc1cc(S(=O)(=O)Nc2cc3c(cc2Cl)n(C)c(=O)c(=O)n3C)ccc1F | -8% | -3%
Cc1nc2cc(NC(=O)C3CC34CCN(Cc3ccc(O)c(Cl)c3)CC4)ccc2s1 (stereo not drawn) | i | -12%
Cc1nnn(-c2nonc2N)c1C(=O)N/N=C/c1cccc2ccccc12 | i | -6%
COc1ccc(CNC(=O)c2cnn(-c3ccccc3)c2-n2cccc2)cc1OC | -18% | -7%
Cc1cc(C)cc(NC(=O)C2CCCN2S(=O)(=O)c2ccc3c(c2)C(C)(C)C(=O)N3C)c1 (stereo not drawn) | -6% | -3%&-20%
COc1ccc(/C=C/C(O)=C(\C#N)c2nnc(N3CCOCC3)n2-c2ccccc2)cc1OC | -1% | -8%
CN(c1ccccc1)S(=O)(=O)c1cccc(NC(=O)CSc2ncc(C(F)(F)F)cc2Cl)c1 | -22% | ?
CC(=O)N1c2ccccc2NC2=C(C(=O)CCC2)C1c1ccc(F)cc1 (stereo not drawn) | -15% | -8%
Cc1ccc(OCCC(=O)O)cc1 | -4% | -4%
COc1ccccc1CNC(=O)c1cc(-c2cc(F)ccc2OC(C)C)n[nH]1 | i | -24%
Cc1ccc(S(=O)(=O)N2CCN(C(=O)Cc3ccsc3)CC2)c(C)c1 | -19% | -14%
O=C1CCc2cc(S(=O)(=O)NC3CCCCC3)cc3c2N1CC3 | -5% | 0%
COC(=O)Oc1cncc(C(=O)O)c1 | / | -8%
O=C(Cn1nnc(-c2ccccc2)n1)NNC(=O)c1ccc(Br)cc1 | -1% | 3%
Cc1ccc2c(c1)ncc[n+]2CC(=O)c1ccc(Cl)cc1Cl | 43%[activator] | -27%
COc1ccc(N(CC(=O)Nc2cc(C)ccc2C)S(=O)(=O)c2c(C)nn(C)c2C)cc1 | i | -29%
O=C(CCC(=O)c1ccc(Oc2ccccc2)cc1)Nc1cccc(Cl)c1 | i | -15%
O=C(c1ccc(F)cc1)N1CCOCC1 | i | -2%
CCc1nc2c(OCc3ccccc3C(=O)OC)cccn2c1N(C)C(=O)Nc1ccccc1OC | 8% | -11%
CC(C)(C)S(=O)N1Cc2cc(C(=O)NCc3ccc(Oc4ccccc4)cc3)nc(-c3cccc(-c4cc5ccccc5o4)c3)c2[C@@H]1CCO (stereo partly drawn) | i | -7%
CC(C)C[C@@H](CN1CCC[C@H]1CN1C(=O)C(=O)NC[C@@H]1Cc1ccccc1)N1C[C@H](Cc2ccc(O)cc2)N(CCc2ccccc2)C(=O)C1=O | -5% | -15%
Cc1ccc(/C=N/Nc2ccc(Cl)c(C(=O)O)c2)s1 | i | 1%
CC1CCCCC1NC(=O)Cn1nnc2ccccc2c1=O (stereo not drawn) | i | -4%
COc1ccccc1N1CC(C)(C)C(=O)N(C(=O)c2c(F)cccc2Cl)C1=S | -10% | 18%
O=S(=O)(c1ccccc1)N1CCSC1c1ccco1 (stereo not drawn) | -20% | 8%
CC(NC(=O)C(=S)N1CCN(C)CC1)c1ccccc1 (stereo not drawn) | -29% | -8%
O=C(N/N=C1/CCSC1)c1cccc([N+](=O)[O-])c1 | i | 7%
CNC(=O)c1ccsc1NC(=O)CS(=O)(=O)c1ccccc1 | -14% | -10%
CC(C)c1ncc(CO)n1Cc1c(Cl)cccc1Cl | -2% | -1%
CCc1ccc(S(=O)(=O)NCCc2csc3nc(-c4ccccc4)nn23)s1 | -1% | -15%
Cc1ccc2c(CC(=O)Nc3ccccc3C(F)(F)F)coc2c1C | -10% | -13%
Cc1ccc(OC(=O)CCC(=O)N2CCc3ccccc32)cc1 | ? | -3%
CC(=O)Nc1ccccc1C(=O)C(=O)Nc1cccc(C(=O)N2CC(C)CC(C)C2)c1 (stereo not drawn) | -24% | -17%
Cc1ccc(C(=O)Nc2cc(C(C)C)c(O)c(C(C)C)c2)cc1 | -25% | -25%
O=C(CN1C(=O)C2C3C=CC(C3)C2C1=O)N1CC=C(c2ccccc2)CC1 (stereo not drawn) | / | 22%
CC(=O)c1cccc(NC(=O)CCc2c(C)nc3nc(CN)nn3c2C)c1 | -4% | -4%
CCCCSc1nc(O)c(C2OC(=O)c3c2ccc(OC)c3OC)c(=O)n1-c1ccccc1 (stereo not drawn) | / | -2%
CCOc1ccccc1-c1nc(-c2ccc(-c3ccccc3)nc2OCC)no1 | -4% | -12%
Nc1ccc(N(CCO)CCO)cc1 | -1% | 10%
Cc1cccc(C(=O)NCCNC(=O)c2ccccn2)c1 | -6% | 1%
C=CCNC(=O)c1scc2c1CCCC2 | -4% | -18%
